Vaccinia stage – blocks a specific stage of Vaccinia orthopoxvirus infection; Vaccinia-infected cells, mCherry/Venus stage reporter fluorescence; hits give low values; some inactives read as strong as hits; activity change (mCherry), % (no concentration beside the values); 89,000 compounds, 0.01% hits; AID 1053133;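 active = mCherry past -33% and 40 or more points under the early reporter, replicates agreeing; inconclusive = past -33% without that gap or agreement; tested in A549 cells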;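 note: scaled between vehicle wells and reference inhibitor wells; 23 nL library stock went into each well; one replicate is shown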
Vaccinia stage Venus – recorded beside Vaccinia stage, whose call it bears; activity change (Venus), %; measured here: Venus reporter, other viral stage;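 negative = less Venus signal; first of two replicates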
* = called active by the depositor; ? = inconclusive; · = no result given. Only part of the results is shown, so the mix of outcomes need not match the whole.

item	SMILES	Vaccinia stage	Vaccinia stage Venus
1	CN(C)C(=O)C[C@H]1CC[C@H]2[C@H](COc3ccc(NC(=O)Nc4cccc(Cl)c4)cc3C(=O)N2C)O1	14	16
2	COC(=O)C[C@H]1CC[C@@H]2[C@@H](COc3ccc(NC(=O)Nc4ccc(C)cc4)cc3C(=O)N2C)O1	-20	-14
3	COc1cccc(S(=O)(=O)N[C@@H]2C=C[C@H](CC(=O)NC3CCC3)O[C@@H]2CO)c1	3	4
4	CCCNC(=O)C[C@H]1CC[C@@H]2[C@H](COc3ccc(NC(=O)Nc4ccccc4F)cc3C(=O)N2C)O1	4	2
5	CC(C)NC(=O)N(C)C[C@H]1Oc2c(NC(=O)CCCCCC(=O)Nc3ccccc3N)cccc2C(=O)N([C@H](C)CO)C[C@@H]1C	12	-5
6	COc1ccccc1-c1cccc(-c2nc(C(=O)Nc3nccs3)cc3c2[C@H](CCO)N(C(=O)CC2CC2)C3)c1	?	·
7	CN1CCCCN2[C@H](C1)[C@H](c1ccc(-c3ccc(F)cc3)cc1)[C@@H]2CO	-26	-20
8	CCS(=O)(=O)N1CCC2(CC1)CN(C(=O)Nc1c(C)noc1C)[C@@H](CO)c1c2c2ccc(OC)cc2n1C	11	7
9	CNC(=O)C[C@@H]1CC[C@@H]2[C@@H](COc3ccc(NS(=O)(=O)c4ccccc4C)cc3C(=O)N2C)O1	5	2
10	C[C@@H]1CN([C@@H](C)CO)C(=O)c2cc(NC(=O)CCC(F)(F)F)ccc2O[C@@H](C)CCCCO[C@@H]1CN(C)C(=O)CCC(F)(F)F	14	13
11	COC(=O)C[C@@H]1CC[C@H]2[C@@H](COC[C@H](O)CN2C(=O)Nc2ccccc2OC)O1	-3	-8
12	COCC(=O)Nc1ccc2c(c1)C(=O)N(C)[C@H]1CC[C@H](CC(=O)OC)O[C@@H]1CO2	0	10

Entries of single compounds from above:
COC(=O)C[C@@H]1CC[C@H]2[C@@H](COC[C@H](O)CN2C(=O)Nc2ccccc2OC)O1 is listed with Vaccinia stage: -3; Vaccinia stage Venus: -8
COCC(=O)Nc1ccc2c(c1)C(=O)N(C)[C@H]1CC[C@H](CC(=O)OC)O[C@@H]1CO2 is listed with Vaccinia stage: 0; Vaccinia stage Venus: 10

Retrieved by compound from above, 3 records:
item	SMILES	Vaccinia stage	Vaccinia stage Venus
12	COCC(=O)Nc1ccc2c(c1)C(=O)N(C)[C@H]1CC[C@H](CC(=O)OC)O[C@@H]1CO2	0	10
7	CN1CCCCN2[C@H](C1)[C@H](c1ccc(-c3ccc(F)cc3)cc1)[C@@H]2CO	-26	-20
6	COc1ccccc1-c1cccc(-c2nc(C(=O)Nc3nccs3)cc3c2[C@H](CCO)N(C(=O)CC2CC2)C3)c1	?	·

Continuation.
item	SMILES	Vaccinia stage	Vaccinia stage Venus
13	N#Cc1cccc(-c2ccc([C@H]3[C@H](CO)N4CCCCN(C(=O)Cc5cccnc5)C[C@@H]34)cc2)c1	5	5
14	COc1cccc(NC(=O)N[C@H]2C=C[C@H](CC(=O)Nc3ccc(-c4ccccc4)cc3)O[C@@H]2CO)c1	-3	-5
15	CC(C)NC(=O)NCC[C@@H]1CC[C@@H](NS(=O)(=O)c2ccc(Oc3ccccc3)cc2)[C@H](CO)O1	-15	-4
16	COc1ccccc1-c1cn(CC[C@H]2CC[C@H](NC(=O)C3CCOCC3)[C@H](CO)O2)nn1	5	8
17	C[C@@H]1CN([C@@H](C)CO)C(=O)c2cccc(NC(=O)c3cnccn3)c2O[C@@H]1CN(C)C	6	2
18	COCC(=O)Nc1ccc2c(c1)[C@@H]1C[C@@H](CC(=O)NC3CCCCC3)O[C@H](CO)[C@@H]1O2	-13	-2
19	COc1ccccc1CN1C[C@@H]2N[C@H](C1)C2c1ccc(-c2ccccc2)cc1 (stereo partly drawn)	?	·
20	CC(=O)N1CC2(C1)[C@H](c1ccc(-c3ccc(C#N)cc3)cc1)[C@@H](CO)N2CCC(F)(F)F	-1	3
21	COc1ccc(S(=O)(=O)N(C)C[C@H]2OCCCC[C@H](C)Oc3ccc(NC(=O)NC4CCCCC4)cc3C(=O)N([C@H](C)CO)C[C@H]2C)cc1	33	22
22	N#C[C@@H]1[C@H](c2ccccc2-c2ccc(F)cc2)[C@H](CO)N1C(=O)NC1CCCC1	-8	4
23	C[C@@H]1CN([C@@H](C)CO)C(=O)c2cc(NC(=O)Cn3cnnn3)ccc2O[C@H]1CN(C)C(=O)Nc1ccccc1	22	17
24	CC(=O)N1CCCCN2[C@H](C1)[C@H](c1ccc(-c3ccncc3)cc1)[C@@H]2CO	31	22
25	O=C(NC1CCCC1)N1CCCCN2[C@H](CO)[C@H](c3ccc(-c4ccccc4)cc3)[C@@H]2C1	?	·
26	CC(C)NC(=O)N(C)C[C@@H]1OCc2cnnn2CCCC(=O)N([C@@H](C)CO)C[C@@H]1C	10	11
27	O=C(CCN1CCCCC1)NCC[C@@H]1CC[C@@H](NC(=O)C2CCOCC2)[C@@H](CO)O1	14	12
28	C[C@@H]1CN([C@@H](C)CO)C(=O)c2cccc(NC(=O)NC3CCCCC3)c2O[C@@H]1CN(C)Cc1ccc(C(F)(F)F)cc1	-8	-12
29	CCCNC(=O)C[C@@H]1CC[C@@H]2[C@@H](COc3ccc(NC(=O)NCC)cc3C(=O)N2C)O1	3	8
30	CCCC#Cc1ccc([C@@H]2[C@@H](CO)N3C(=O)CN(S(=O)(=O)c4ccccc4C)C[C@H]23)cc1	?	·
31	C[C@H](CO)N1C[C@H](C)[C@@H](CN(C)S(=O)(=O)c2cn(C)cn2)OCCCC[C@H](C)Oc2ccc(NC(=O)Nc3ccc(F)cc3)cc2C1=O	21	12
32	COCC(=O)Nc1ccc2c(c1)OC[C@@H](C)N(C(C)=O)C[C@@H](C)[C@@H](OC)CN(C)C2=O	12	3
33	COc1ccc(S(=O)(=O)N[C@@H]2C=C[C@H](CC(=O)O)O[C@H]2CO)cc1	7	0
34	C[C@@H]1CN([C@H](C)CO)C(=O)c2cc(NC(=O)Nc3ccccc3)ccc2O[C@@H]1CN(C)S(C)(=O)=O	8	10
35	C[C@H](NC(=O)C[C@H]1C[C@H]2c3cc(NS(C)(=O)=O)ccc3O[C@H]2[C@@H](CO)O1)c1ccccc1	12	6
36	CC(C)[C@H](C)NC(=O)N(C)C[C@H]1OCc2ccccc2-c2c(n(C)c3ccccc23)C(=O)N([C@H](C)CO)C[C@H]1C	20	16
37	O=C(C[C@@H]1CC[C@@H]2[C@H](COC[C@H](O)CN2C(=O)c2cccnc2)O1)NC1Cc2ccccc2C1	0	-2
38	CN(C)C(=O)C[C@@H]1C=C[C@@H](NC(=O)NC2CCCC2)[C@@H](CO)O1	9	8
39	O=C(C1CCOCC1)N1CC[C@@H]2[C@H]1c1cc(-c3cccc(F)c3)ccc1N[C@@H]2CO	-7	0
40	CN1C(=O)c2cc(NC(=O)Cc3cccs3)ccc2OC[C@H]2O[C@@H](CC(=O)NCCc3ccncc3)CC[C@H]21	1	4
41	C[C@@H]1CN([C@@H](C)CO)C(=O)c2c(c3ccccc3n2C)-c2ccccc2CO[C@@H]1CN(C)Cc1ccc(-c2ccccc2)cc1	?	·
42	CCCC(=O)Nc1ccc2c(c1)OC[C@H](C)N(CCC)C[C@@H](C)[C@H](OC)CN(C)C2=O	-13	-14
43	CCCC#Cc1ccc([C@H]2[C@@H](CO)N3CCCCN(C(=O)c4ccc5c(c4)OCO5)C[C@H]23)cc1	?	·
44	O=C(O)[C@H]1[C@H](CO)[C@H]2Cn3c(ccc(-c4ccc(F)cc4)c3=O)[C@@H]1N2CC1CCCC1	0	12
45	Cc1noc(C)c1NC(=O)N(C)C[C@H]1Oc2ccc(NC(=O)C3CC3)cc2CC(=O)N([C@H](C)CO)C[C@H]1C	2	8
46	COc1ccc(-c2cn(CC[C@@H]3CC[C@H](NS(=O)(=O)c4ccccc4C)[C@H](CO)O3)nn2)cc1	-18	-8
47	COc1ccc(S(=O)(=O)Nc2ccc3c(c2)CC(=O)N([C@@H](C)CO)C[C@H](C)[C@@H](CN(C)Cc2ccc(Oc4ccccc4)cc2)O3)cc1	-15	-9
48	CCC(=O)N1C[C@H](C)[C@H](OC)CN(C)C(=O)c2cc(NS(=O)(=O)CC)ccc2OC[C@@H]1C	6	8
49	CO[C@@H]1CN(C)C(=O)c2ccc(NC(=O)C3CC3)cc2OC[C@@H](C)N(C(=O)Nc2ccc(C(F)(F)F)cc2)C[C@H]1C	-15	-9
50	CC(=O)N1[C@@H]2Cn3c(ccc(-c4ccccc4)c3=O)[C@H]1[C@@H](C(=O)N1CCCCC1)[C@@H]2CO	-4	-1
51	C[C@@H]1CCCCO[C@H](CN(C)C)[C@@H](C)CN([C@H](C)CO)C(=O)c2cc(NC(=O)Nc3ccc(F)cc3)ccc2O1	4	6
52	C[C@@H]1CN([C@@H](C)CO)C(=O)c2cc(C#Cc3ccccn3)cnc2O[C@@H]1CN(C)CC1CCOCC1	2	9
53	C[C@H]1CN([C@@H](C)CO)S(=O)(=O)c2ccc(-c3cccnc3)cc2O[C@H]1CN(C)C(=O)c1ccc2c(c1)OCO2	-4	13
54	C[C@H]1CN([C@@H](C)CO)C(=O)c2cc(NC(=O)Nc3cccc4ccccc34)ccc2O[C@H]1CN(C)C(=O)NC1CCCCC1	-4	-6
55	Cc1noc(C)c1NC(=O)N(C)C[C@H]1OCCCC[C@H](C)Oc2ccc(NC(=O)c3ccncc3)cc2C(=O)N([C@H](C)CO)C[C@@H]1C	42	24
56	CO[C@H]1CN(C)C(=O)c2ccc(NC(=O)Nc3ccc(F)cc3)cc2OC[C@@H](C)NC[C@H]1C	6	7
57	O=C(C[C@@H]1C[C@H]2c3cc(NC(=O)CC4CC4)ccc3O[C@H]2[C@H](CO)O1)NCc1ccccn1	0	9
58	CC(C)C#Cc1ccc([C@H]2[C@@H](CO)N3C(=O)CN(C(=O)Cc4ccccc4)C[C@@H]23)cc1	5	2
59	C[C@H]1CN([C@@H](C)CO)C(=O)c2cc(NC(=O)Cc3cn(C)c4ccccc34)ccc2O[C@H]1CN(C)C(=O)Nc1ccc2c(c1)OCO2	12	8
60	C[C@H]1CN([C@@H](C)CO)C(=O)CCCn2cc(nn2)CO[C@@H]1CN(C)C(=O)C1CCCCC1	13	6
61	C[C@@H]1CCCCO[C@@H](CN(C)Cc2ccc(Cl)c(Cl)c2)[C@H](C)CN([C@@H](C)CO)C(=O)c2cc(NC(=O)Nc3ccc(F)cc3)ccc2O1	-12	-11
62	C[C@H](NC(=O)[C@@H]1N[C@@H]2c3ccc(C4=CCCCC4)c(=O)n3C[C@@H]2[C@H]1CO)c1ccccc1	-4	0
63	CS(=O)(=O)Nc1ccc2c(c1)[C@H]1C[C@H](CC(=O)NCc3cccnc3)O[C@H](CO)[C@H]1O2	4	0
64	CNC(=O)C[C@@H]1CC[C@H]2[C@@H](COC[C@H](O)CN2Cc2ccc(Cl)c(Cl)c2)O1	1	4
65	C[C@H](CO)N1C[C@H](C)[C@@H](CN(C)Cc2ccc(C(=O)O)cc2)Oc2ccc(NC(=O)Nc3ccc4c(c3)OCO4)cc2CC1=O	19	20
66	COc1ccc(NC(=O)N(C)C[C@H]2Oc3c(NC(=O)C4CCOCC4)cccc3C(=O)N([C@H](C)CO)C[C@@H]2C)cc1	5	3
67	C[C@@H]1CN([C@H](C)CO)C(=O)c2cc(NC(=O)Nc3ccc(C(F)(F)F)cc3)ccc2O[C@@H](C)CCCCO[C@H]1CN(C)S(C)(=O)=O	?	·
68	C[C@@H]1CCCCO[C@@H](CN(C)S(=O)(=O)c2ccc(F)cc2)[C@@H](C)CN([C@@H](C)CO)C(=O)c2cc(NC(=O)C3CCCCC3)ccc2O1	-8	-3
69	Cc1ccc(S(=O)(=O)Nc2ccc3c(c2)C(=O)N([C@H](C)CO)C[C@@H](C)[C@H](CN(C)C(=O)Nc2ccc(F)cc2)OCCCC[C@@H](C)O3)cc1	-22	-15
70	CNC[C@@H]1OCCCC[C@@H](C)Oc2ccc(NS(=O)(=O)c3ccc(OC)cc3)cc2C(=O)N([C@H](C)CO)C[C@H]1C	14	15
71	C[C@@H]1CN([C@H](C)CO)S(=O)(=O)c2ccc(C3=CCCC3)cc2O[C@H]1CN(C)C(=O)CC1CC1	1	-5
72	C[C@@H]1CN([C@H](C)CO)S(=O)(=O)c2ccc(-c3ccc(F)cc3)cc2O[C@H]1CN(C)C(=O)C1CCOCC1	-1	-3

(cont.)
item	SMILES	Vaccinia stage	Vaccinia stage Venus
73	O=C(Nc1ccc(F)cc1)N[C@@H]1CC[C@H](CCn2cc(C3(O)CCCC3)nn2)O[C@H]1CO	-10	-7
74	O=S(=O)(NCC[C@H]1CC[C@@H](NS(=O)(=O)c2ccccc2Cl)[C@@H](CO)O1)c1ccc(Cl)cc1	-25	-20
75	C[C@H](CO)N1C[C@H](C)[C@@H](CN(C)Cc2ccc(C(=O)Nc3ccccc3N)cc2)Oc2c(NS(C)(=O)=O)cccc2C1=O	8	-3
76	CO[C@@H]1CN(C)C(=O)c2cc(NC(=O)C3CCCCC3)ccc2OC[C@H](C)NC[C@H]1C	12	3
77	COc1ccccc1CNC(=O)C[C@@H]1C=C[C@H](NC(C)=O)[C@H](CO)O1	10	17
78	CCCNC(=O)C[C@@H]1CC[C@@H]2[C@H](COC[C@H](O)CN2C(=O)c2cc(Cl)cc(Cl)c2)O1	-3	0
